Bioassay records from PubChem.
LASV entry inh = Lassa virus entry inhibition | 300,000 tested, 1.2% active | Lassa virus pseudotype entry inhibition, cell reporter; control for the full effect not named in the record | Potency, µM (top dose mostly 37.9 µM), for inactives: at the highest dose activity change, negative = inhibition, most hits filed as inhibitors; active means well fitted inhibition curve with a large enough effect; inconclusive means small, poorly fitted or top-dose-only effect, or effect the other way; inactive means flat fitted curve, though single readings scatter; tested in HEK293 cells; also: % is scaled to controls: 0 for no effect and ±100 for the full control effect; nearly all actives have a fitted effect of over 50% in size; luciferase read-out
RE007 growth inh = less growth of the S. pombe RE007 Vpr strain; S. pombe RE007 Vpr strain, BacTiter-Glo ATP luminescence, 24 h; control for the full effect not named in the record; Potency, µM (doses to about 92.2 µM), inactives show top-dose activity change, negative = less growth; 360,000 tested, 0.21% active; active = well fitted falling curve with a large enough effect; inconclusive = small, poorly fitted or top-dose-only effect; inactive = no such curve, though single readings can be large or run the other way;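 also: % is scaled to controls: 0 for no effect and ±100 for the full control effect; nearly all actives have a fitted effect of over 50% in size; the assay follows cell death caused by Vpr and the record does not say whether a fall means rescue or toxicity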
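Fission yeast RE007 carrying one integrated HIV-1 vpr copy, seeded at OD 0.01 in PMG+AL medium with 23 nL pinned compound. Grown 24 h at 30 degrees; viability read by BacTiter-Glo luminescence after 5 min.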
Cruzain Triton = blocks cruzain activity in presence of Triton detergent | purified cruzain, Z-FR-AMC fluorescence, 0.01% Triton | Potency, µM, without a hit: max response, negative = inhibition, most hits filed as inhibitors | 200,000 tested, 0.43% active | AID 1478;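 also: plate controls were neutral wells for no effect and buffer without enzyme for full effect; nearly all actives have a fitted effect of over 40% in size; top concentration of the series not given in the record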
Target sequence (P25779 123-467 limits assumed): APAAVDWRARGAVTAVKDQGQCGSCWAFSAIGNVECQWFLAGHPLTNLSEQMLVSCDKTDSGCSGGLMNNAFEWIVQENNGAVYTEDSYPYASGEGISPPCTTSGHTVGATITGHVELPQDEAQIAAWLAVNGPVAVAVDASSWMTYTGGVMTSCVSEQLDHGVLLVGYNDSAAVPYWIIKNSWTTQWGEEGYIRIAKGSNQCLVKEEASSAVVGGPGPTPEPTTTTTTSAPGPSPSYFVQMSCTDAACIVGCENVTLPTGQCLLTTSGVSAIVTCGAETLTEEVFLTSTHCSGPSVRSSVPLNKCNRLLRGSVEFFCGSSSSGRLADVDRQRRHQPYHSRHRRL
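Steps: dispense cruzain (1.5 nM final) in acetate buffer pH 5.5 with DTT and 0.01% Triton X-100; pin-transfer compounds; incubate 15 min RT; add Z-FR-AMC (2 uM final); read fluorescence every 30 s, using the 60 s intensity change.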
SARS PLP yeast = blocks SARS-CoV papain-like protease in a yeast assay | S. cerevisiae expressing SARS-CoV PLpro, growth rescue; control for the full effect not named in the record | Potency, µM (doses to about 32.9 µM), for the others: at the highest dose activity, positive = growth rescue | 330,000 tested, 0.19% active; active means well fitted rising curve with a large enough effect; inconclusive means small, poorly fitted or top-dose-only effect; inactive means no such curve, though single readings can be large or run the other way; also: 0% is about no effect; nearly all actives have a fitted effect of over 55% in size; growth read by luminescence after 48 h
Cruzain noTriton = blocks cruzain activity in detergent-free assay | purified cruzain, Z-FR-AMC fluorescence, no detergent | Potency, µM, inactives show max response, negative = inhibition, hits mostly inhibitors | AID 1476 | 200,000 tested, 2.3% active | P25779;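 also: plate controls were enzyme without inhibitor for no effect and buffer without enzyme for full effect; nearly all actives have a fitted effect of over 40% in size; top concentration of the series not given in the record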
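Purified cruzain at 1.5 nM, pre-incubated 15 min with compound at room temperature in 100 mM sodium acetate pH 5.5, 5 mM DTT, 0.00005% Triton X-100. Reaction started with 2 uM Z-FR-AMC; AMC fluorescence increase over 60 s gives rate.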
NS1 function inh = inhibitors of influenza NS1 protein function; S. cerevisiae slowed by influenza A NS1, growth recovery by OD600; Potency, µM (doses to about 46.1 µM), for inactives: top-dose activity, positive = more growth; 270,000 tested, 0.4% active; AID 2326; active means well fitted rising curve with a large enough effect; inconclusive means small, poorly fitted or top-dose-only effect; inactive means no such curve, though single readings can be large or run the other way; also: nearly all actives have a fitted effect of over 50% in size
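A cell-based growth assay was used: compounds that relieve NS1-induced slow growth of budding yeast raise OD600. Assay medium was yeast nitrogen base with ammonium sulphate and -URA supplement, pH 6.0, with 2% galactose.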
Marburg entry inh = inhibitors of Marburg virus binding or cell entry. Potency, µM (titrated, usually from 37.8 µM), without a hit: at the highest dose activity change, negative = inhibition, actives largely listed as inhibitors. 300,000 tested, 1.8% active. AID 540276. Marburg virus pseudotyped entry inhibition, cell reporter; control for the full effect not named in the record; about a third of the inactives were read at about 46 µM; active = well fitted inhibition curve with a large enough effect; inconclusive = small, poorly fitted or top-dose-only effect, or effect the other way; inactive = flat fitted curve, though single readings scatter; tested in HEK293 cells; about a fifth of its hits are not listed in these tables; also: % is scaled to controls: 0 for no effect and ±100 for the full control effect; luciferase read-out
2A StopGo = FMDV 2A StopGo reporter, luciferase signal; human cells with a luciferase reporter of 2A StopGo recoding; control for the full effect not named in the record; Potency, µM (doses to about 57.9 µM), without a hit: at the top dose signal change, negative = less light; 410,000 tested, 1.2% active; active = well fitted falling curve with a large enough effect; inconclusive = small, poorly fitted or top-dose-only effect; inactive = no such curve, though single readings can be large or run the other way; tested in HEK293T cells; also: % is scaled to controls: 0 for no effect and ±100 for the full control effect; nearly all actives have a fitted effect of over 45% in size; luciferase light after 4 h
* = called active by the depositor; & = joins results of further samples; [ ] = another dose, or the depositor's remark. Unless noted, calls follow the shape of the dose curve; as a rule, active = well fitted curve in the direction sought with a large enough effect; inconclusive = small, poorly fitted or top-dose-only effect, or another doubt; inactive = no such curve, though single readings can be large; an effect the other way counts as inactive or inconclusive. Potency is read from the fitted curve at half-maximal effect.

Screening O=C(Cn1nc(C(F)(F)F)c2c1CCC2)N1CCN(c2ccccc2)CC1 returned LASV entry inh 6%, RE007 growth inh -7%, Cruzain Triton 1.7%, SARS PLP yeast 0%, Cruzain noTriton 6%, NS1 function inh -2%, Marburg entry inh 25% and 2A StopGo -8%.
O=C(COC(=O)c1cccc(O)c1)Nc1ccc(Cl)cc1C(=O)c1ccccc1 was read as RE007 growth inh 4%, Cruzain Triton -12%, SARS PLP yeast -15%, Cruzain noTriton -5%, NS1 function inh -5%, Marburg entry inh 0% and 2A StopGo -22%.
Cc1cc(C)c(NC(=O)CSC2=Nc3ccccc3C3=NC(CC(=O)NCc4cccs4)C(=O)N23)c(C)c1 (stereo not given) was read as LASV entry inh 22%[46.1 µM], Cruzain Triton -6.1%, Cruzain noTriton inconclusive, Marburg entry inh 20%[46.1 µM] and 2A StopGo -6%.
`Cc1ccccc1NC(=O)C1(NC(=O)c2cccc(N3C(=O)CSC3c3ccccc3)c2)CCCCC1` (stereo not given) gave LASV entry inh 2%, RE007 growth inh 11%, Cruzain Triton 2.0%, SARS PLP yeast 0%, Cruzain noTriton -9%, NS1 function inh 8%, Marburg entry inh inconclusive and 2A StopGo -10%.
For CC(C)(C)c1ccc(OCCC(=O)NNC(=O)c2ccncc2)cc1 the results were LASV entry inh -5%, RE007 growth inh -3%, SARS PLP yeast -12%, Marburg entry inh 0% and 2A StopGo 15%.
Screening CCC(C)NC(=O)CSc1nc2ccccc2c(=O)n1CCCC(=O)NCC1CCCO1 (stereo not given) returned LASV entry inh -3%, RE007 growth inh 0%, Cruzain Triton 1.9%, SARS PLP yeast -4%, Cruzain noTriton -1%, NS1 function inh 4%, Marburg entry inh -4% and 2A StopGo inconclusive.
For Cc1cc(C)c2nc(SCC(=O)NNC(=O)c3ccco3)c(C)cc2c1 the results were LASV entry inh inconclusive, RE007 growth inh inconclusive, SARS PLP yeast 1%, NS1 function inh inconclusive, Marburg entry inh inconclusive and 2A StopGo 2%.
COc1cc(CCNC(=O)CCCn2c(=O)c3cccn3c3cccnc32)cc(OC)c1OC was read as LASV entry inh -10%[46.1 µM], RE007 growth inh 9%, SARS PLP yeast 9%, NS1 function inh -17%, Marburg entry inh inconclusive and 2A StopGo -11%.
For CCCCc1nc2cc(C(=O)N3CCCCC3C(=O)OC)ccc2o1 (stereo not given) the results were RE007 growth inh -8%, SARS PLP yeast 3%, NS1 function inh -7% and 2A StopGo 14%.
OCC1(CCCc2ccccc2)CCN(Cc2ccc(F)cc2)CC1 was read as LASV entry inh -29%, RE007 growth inh 2%, SARS PLP yeast 0%, NS1 function inh 2%, Marburg entry inh inconclusive and 2A StopGo -5%.
For CN(CCCC(=O)Nc1nccs1)S(=O)(=O)c1ccc(Cl)cc1 the results were RE007 growth inh 5%, Cruzain Triton -0.4%, SARS PLP yeast 0%, Cruzain noTriton -7%, NS1 function inh -11% and 2A StopGo -29%.
`COc1ccc(NS(=O)(=O)c2cc(NC(=O)CNC(=O)c3cccc(OC)c3)ccc2C)cc1` gave LASV entry inh inconclusive, RE007 growth inh 18%, Cruzain Triton -0.3%, SARS PLP yeast -17%, Cruzain noTriton -9%, NS1 function inh 4%, Marburg entry inh inconclusive and 2A StopGo 12%.
Screening C=CCNC(=O)c1ccc(Cl)cc1Cl returned LASV entry inh -3%, RE007 growth inh -27%, Cruzain Triton 1.4%, SARS PLP yeast -2%, Cruzain noTriton -2%, NS1 function inh 1%, Marburg entry inh 9%[46.1 µM] and 2A StopGo -7%.
`CC(C)CC12CN3CCN(CC(C3)/C1=N/O)C2` gave LASV entry inh 29%, RE007 growth inh 0%, Cruzain Triton 2.4%, SARS PLP yeast -6%, Cruzain noTriton -7%, NS1 function inh 5%, Marburg entry inh 26% and 2A StopGo 15%.
COc1ccc(CCN2CC(C(=O)OCC(=O)Nc3c(C)nn(-c4ccccc4)c3C)CC2=O)cc1OC (stereo not given) was read as LASV entry inh inconclusive, RE007 growth inh 7%, SARS PLP yeast 0%, Marburg entry inh -27%[46.1 µM] and 2A StopGo 26%.
`Clc1ccccc1Nc1ncnc(-n2cccc2)n1` gave LASV entry inh inconclusive, RE007 growth inh -7%, Cruzain Triton 0.7%, SARS PLP yeast -7%, Cruzain noTriton -13%, NS1 function inh -6%, Marburg entry inh 14% and 2A StopGo 49%[activator].
For COc1cc(/C=C/C(=O)OCC(=O)NCCC2=CCCCC2)cc(OC)c1OC the results were LASV entry inh 4%, RE007 growth inh -5%, SARS PLP yeast 0%, Marburg entry inh -13% and 2A StopGo -19%.
`O=C(c1ccc(Oc2ccc(Cl)cc2)c([N+](=O)[O-])c1)N1CCCC1` gave RE007 growth inh 18%, SARS PLP yeast -4%, NS1 function inh -6% and 2A StopGo inconclusive.
CC(OC(=O)Cn1[nH]c(=O)c2ccccc2c1=O)C(=O)Nc1ccc(F)cc1Cl (stereo not given) was read as LASV entry inh 5%[46.1 µM], RE007 growth inh -6%, SARS PLP yeast 3%, Marburg entry inh 25% and 2A StopGo -2%.
`CC(CCc1ccccc1)NC(=O)C(=O)NCCO` (stereo not given) gave LASV entry inh 2%, RE007 growth inh 16%, Cruzain Triton 5.0%, SARS PLP yeast 3%, Cruzain noTriton -8%, NS1 function inh 3%, Marburg entry inh 4% and 2A StopGo 22%.
`CN1CCN(C(=O)c2ccccc2-c2ccccc2C(=O)O)CC1` gave LASV entry inh 4%, RE007 growth inh 9%, Cruzain Triton 4.2%, SARS PLP yeast -5%, Cruzain noTriton -3%, NS1 function inh 2%, Marburg entry inh -6% and 2A StopGo 21%.
For O=C1NC(NS(=O)(=O)c2ccccc2)(C(F)(F)F)C(=O)N1CCc1ccccc1 (stereo not given) the results were LASV entry inh 15%, RE007 growth inh -4%, Cruzain Triton -2.1%, SARS PLP yeast 3%, Cruzain noTriton 8%, NS1 function inh 5%, Marburg entry inh inconclusive and 2A StopGo 29%&16%.
For Nc1nc(CSCCO)nc(Nc2ccc(F)cc2)n1 the results were LASV entry inh 14%, RE007 growth inh 1%, Cruzain Triton 7.3%, SARS PLP yeast -10%, Cruzain noTriton -6%, NS1 function inh -8%, Marburg entry inh 4% and 2A StopGo 40%[activator].
CSc1nc(N2CCOCC2)c2c3c(sc2n1)CCC3 was read as LASV entry inh -4%, RE007 growth inh -2%, Cruzain Triton -5.4%, SARS PLP yeast -4%, Cruzain noTriton -16%, NS1 function inh -11%, Marburg entry inh inconclusive and 2A StopGo -15%.
`COc1ccc(S(=O)(=O)NCCNC(=O)N2CCOCC2)cc1` gave RE007 growth inh -2%, SARS PLP yeast inconclusive, NS1 function inh 7% and 2A StopGo -20%.
`COc1ccc(N2CCN(C(=O)C3CCCN(S(=O)(=O)c4c(C)noc4C)C3)CC2)cc1` (stereo not given) gave LASV entry inh inconclusive, RE007 growth inh 3%, SARS PLP yeast 1%, NS1 function inh -4%, Marburg entry inh -8%[46.1 µM] and 2A StopGo -15%.
For COc1ccc(N2CCN(CC(=O)c3c[nH]c4ccccc34)CC2)cc1 the results were LASV entry inh inconclusive, RE007 growth inh -17%, SARS PLP yeast 1%, NS1 function inh -3%, Marburg entry inh -3% and 2A StopGo -8%.
Screening C/C(=N\NC(=O)c1ccc(F)cc1)c1ccccn1 returned RE007 growth inh inconclusive, SARS PLP yeast -4%, NS1 function inh -60% and 2A StopGo -30%.
Cc1ccc(C)c(S(=O)(=O)N2CCN(C(=O)CSc3ccccc3)CC2)c1 was read as LASV entry inh -21%, RE007 growth inh -2%, SARS PLP yeast 1%, NS1 function inh 10%, Marburg entry inh -1% and 2A StopGo -11%.
`CC(Oc1ccc2c3c(c(=O)oc2c1)CCCC3)C(=O)NCc1ccccn1` (stereo not given) gave RE007 growth inh -7%, SARS PLP yeast 0%, NS1 function inh -19% and 2A StopGo -6%.
`COc1ccc(-c2nc3n(c2C)Cc2ccccc2-3)cc1` gave LASV entry inh inconclusive, RE007 growth inh 1%, SARS PLP yeast -1%, NS1 function inh -8%, Marburg entry inh inconclusive and 2A StopGo 38%[activator].
Screening CCn1c(-c2cc(Cl)ccc2OC)n[nH]c1=S returned LASV entry inh 4%, RE007 growth inh 38%, Cruzain Triton 0.6%, SARS PLP yeast 7%, Cruzain noTriton 4%, NS1 function inh 1%, Marburg entry inh inconclusive and 2A StopGo -21%.
For CCOc1ccc(NS(=O)(=O)c2ccc(NS(=O)(=O)c3ccccc3)cc2)cc1 the results were LASV entry inh 1%, RE007 growth inh 0%, Cruzain Triton -11%, SARS PLP yeast -3%, Cruzain noTriton -5%, NS1 function inh -3%, Marburg entry inh 4% and 2A StopGo -5%.
CC(C)CCn1c(CN2CCN(C(=O)c3ccco3)CC2)nc2c1c(=O)n(C)c(=O)n2C was read as RE007 growth inh -5%, Cruzain Triton -2.8%, SARS PLP yeast -2%, Cruzain noTriton 17%, NS1 function inh -15% and 2A StopGo -11%.
COC(=O)c1c(NC(=O)CSc2nc(-c3ccco3)cc(C(F)(F)F)n2)sc2c1CCCC2 was read as LASV entry inh inconclusive, RE007 growth inh 2%, Cruzain Triton 3.0%, SARS PLP yeast -2%, Cruzain noTriton -28%, NS1 function inh 11%, Marburg entry inh 3% and 2A StopGo 13%.
Cc1cc(-c2nnc3sc(-c4ccc(Cl)cc4Cl)nn23)n[nH]1 was read as LASV entry inh inconclusive, RE007 growth inh -19%, Cruzain Triton 8.2%, SARS PLP yeast -6%, Cruzain noTriton -11%, NS1 function inh -3%, Marburg entry inh inconclusive and 2A StopGo inconclusive.
Screening Cc1ccc(-c2onc(C)c2C)cc1S(=O)(=O)N1CCc2ccccc21 returned LASV entry inh -10%[46.1 µM], Cruzain Triton 2.0%, Cruzain noTriton 5% and 2A StopGo inconclusive.
For CCc1cccc(NC(=O)CCS(=O)(=O)c2ccc3nc(C)sc3c2)c1 the results were LASV entry inh -16%[46.1 µM], Cruzain Triton -2.6%, Cruzain noTriton 5% and 2A StopGo 5%.

An unsorted share of the library; any-hit rate near 4.7%.
